High-throughput results (PubChem BioAssay)
FEN1 inhibitor: qHTS Assay for the Inhibitors of Human Flap endonuclease 1 (FEN1); P39748; Recombinant FEN1 flap cleavage, fluorescence, 15 min; Potency, µM (series often up to 114 µM), for the others: top-dose activity change, negative = inhibition, actives largely listed as inhibitors; hit rate 0.35% among 390,000; further: nearly all actives have a fitted effect of over 65% in size
Target sequence (P39748 whole entry, looked up): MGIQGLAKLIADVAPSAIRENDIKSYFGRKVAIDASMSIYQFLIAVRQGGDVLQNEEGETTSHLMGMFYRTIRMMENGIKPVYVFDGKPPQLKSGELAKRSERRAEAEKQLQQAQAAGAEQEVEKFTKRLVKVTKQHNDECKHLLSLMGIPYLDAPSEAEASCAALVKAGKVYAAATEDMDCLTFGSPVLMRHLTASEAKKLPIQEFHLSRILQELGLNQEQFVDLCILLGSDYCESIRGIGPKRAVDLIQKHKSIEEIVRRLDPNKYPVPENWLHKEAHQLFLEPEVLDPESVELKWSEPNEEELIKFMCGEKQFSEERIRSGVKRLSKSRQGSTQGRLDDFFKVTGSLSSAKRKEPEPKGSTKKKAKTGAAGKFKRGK
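Read-out was taken twice, immediately and after 15 min, following addition of 50 nM substrate to 10 nM FEN1 that had sat with test compound for 15 min at room temperature. Curves came from a four-parameter Hill model.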
DT40 TDP1 CPT: qHTS for Inhibitors of human tyrosyl-DNA phosphodiesterase 1 (TDP1): qHTS in cells in presence of CPT; chicken DT40 Tdp1-/-;hTDP1 cells + 20 nM CPT, ATP luminescence, 48 h; Potency, µM (series often up to 46.2 µM), inactives show at the highest dose activity change, negative = growth inhibition, most hits filed as inhibitors; hit rate 12% among 420,000; further: nearly all actives have a fitted effect of over 55% in size
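Chicken DT40 Tdp1-/- cells complemented with human TDP1, 400 cells/well, exposed to compounds plus 20 nM camptothecin for at least 48 h at 37 C; viability read as ATP content by CellTiter-Glo luminescence.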
Numbers without * were called inactive; ? = inconclusive; & = joins results of further samples. The call rests on the fitted dose curve; in most records, active means well fitted curve in the direction sought with a large enough effect; inconclusive means small, poorly fitted or top-dose-only effect, or another doubt; inactive means no such curve, though single readings can be large; an effect the other way counts as inactive or inconclusive. On the % scale 0 is the no-effect control and ±100 the full control effect; potency means the concentration at half of the fitted maximal effect.

SMILES	FEN1 inhibitor	DT40 TDP1 CPT
COc1ccc(C2/C(=C(/O)c3ccc(C)cc3)C(=O)C(=O)N2C)c(OC)c1 (stereo not given)	7.2%	-2.6%
COc1ccc2c(c1OC)C(=O)OC2Nc1ccc(S(=O)(=O)N=C(N)N)cc1 (stereo not given)	19.6%	-0.7%
COc1ccc(N2CCN(C(=O)C34CCC(C)(C(=O)C3)C4(C)C)CC2)cc1 (stereo not given)	-3.6%	?
CC(C)NC(=O)/C(=C/c1cn(-c2ccccc2)nc1-c1cccc([N+](=O)[O-])c1)NC(=O)c1ccccc1	-2.3%	-28.6%
N#CC[C@H](Cc1ccccc1)N1CCN(CCc2ccccc2)CCC1=O	-13.5%&3.3%	?
CCn1nc(C)cc1C(=O)N1CCCC(N(C)CCc2ccc(OC)c(OC)c2)C1 (stereo not given)	-3.2%	1.2%
COc1ccc(C(=O)C2CCCN(C(=O)c3cccc(Cn4cccn4)c3)C2)cc1F (stereo not given)	9.1%	?
CN1C(=O)/C(=C/c2ccccc2Cl)Sc2ccc(C(=O)N3CCCC3)cc21	-23.2%	?
COC(=O)c1ccc(N(C(=O)CNC(=O)c2ccco2)C(C(=O)NCC2CCCO2)c2ccc(OC)c(OC)c2)cc1 (stereo not given)	-11.1%	12.3%
CC1CN(C(=O)COC(=O)c2ccc(N)c([N+](=O)[O-])c2)CC(C)O1 (stereo not given)	-1.7%	1.7%
CC(=O)c1c(C)nn(C(C)CC(=O)O)c1C (stereo not given)	12.1%	2.7%
CCCC(C(=O)NC1CCCC1)N(Cc1ccccc1Cl)C(=O)c1snc(C(N)=O)c1N (stereo not given)	-2.2%	-25.4%
Cn1c2c(c(=O)[nH]c1=O)C(c1cccc(O)c1)C1=C(N2)c2ccccc2C1=O (stereo not given)	-3.1%	7.31µM*
CCCN(CC(=O)Nc1ccc(Cl)cc1Cl)C(=O)c1ccc(=O)[nH]c1	17.6%	0.8%
CCCCNC(=O)COC(=O)CCC(=O)c1ccc(F)cc1	7.9%	-0.4%
Cc1ccccc1OCCSc1nnc(-c2cccnc2)n1N	14.6%	-6.5%
CC(C)CC(NS(=O)(=O)c1cc(C(=O)O)ccc1Cl)C(=O)O (stereo not given)	-1.2%	15.8%
O=C(Nc1ccon1)c1ccc(Cl)s1	1.0%	-1.5%
Cc1nn(C(C)C(=O)O)c(=O)c2ccccc12 (stereo not given)	14.3%	27.6%
COC(=O)c1ccccc1S(=O)(=O)Nc1ccc(OC)nc1	0.8%	-1.3%
Cc1ccc(NC(=O)C(=O)NCCCN2CCCC2=O)cc1	-1.0%	?
O=C1c2ccccc2-c2onc3ccc(Oc4ccccc4)c1c23	-0.6%	3.26µM*
O=C(COc1ccc2ccccc2c1)Nc1ccc2c3c(cccc13)CC2	14.1%	?
COc1ccccc1NS(=O)(=O)c1cccc(C(=O)OCc2nc3ccccc3s2)c1	-12.7%	-3.6%
O=C(NCC1COc2ccccc2O1)c1ccc(NC(=O)c2ccco2)cc1 (stereo not given)	-0.6%	?
N/C(=N\OC(=O)CCC1CCCC1)c1ccc(Cl)cc1	-14.4%	-4.8%
Cc1ccc(C(=O)CSc2nc3ccc(C(=O)NCCN4CCCCC4)cc3c(=O)[nH]2)cc1	-1.0%	11.7%
Cc1ccnc(SCC(=O)c2cccs2)n1	1.0%	0.8%
COC(=O)c1ccccc1NC(=O)c1c(O)c2c([nH]c1=O)CCCC2	-0.7%	0.3%
O=C(CS(=O)(=O)c1ccc(Cl)cc1)NCc1ccccc1	0.0%	8.1%
COC(=O)C1[C@H]2C(=O)N(Cc3cccs3)C[C@]23C=C[C@H]1O3 (stereo not given in full)	-3.2%	11.4%
O=C(NCCN1CCCCC1)Nc1cccc(C(F)(F)F)c1	3.2%	3.3%
CO/N=C/C(=N\Nc1cc(OC)cc(OC)c1)C(=O)c1ccccc1	-9.9%	?
COc1cccc(NC(=O)Nc2nnc(Cc3ccccc3F)s2)c1	-11.5%	?
CCn1c(/C=N/n2cnnc2)nc2ccccc21	-2.8%	-11.1%
CC1CC(C)CN(S(=O)(=O)c2ccc(C(=O)NN3CCOCC3)cc2)C1 (stereo not given)	2.6%	-4.8%
COc1ccc(CCNC(=O)CCc2ccc(S(=O)(=O)NC(C)C)cc2)cc1OC	-3.6%	3.8%
Cn1ncc(N=Cc2ccccc2O)c1C(=O)N1CCOCC1	-5.1%	10.8%
Cn1nc(C(F)(F)F)c(CN2CC(C)(C)C2=O)c1N1CCOCC1	0.5%	13.4%
CCOc1ccc(C2N(c3cc(C)on3)C(=O)C3CCCN32)cc1OC (stereo not given)	-11.4%	?
Cc1cc(Cl)cc(Cl)c1OCCN1CCCC1	14.3%	0.6%
CC(NC(=O)Nc1ncccn1)(C(F)(F)F)C(F)(F)F	4.4%	-1.4%
COc1c(C)cc(Br)cc1C(=O)Nc1cccc(NC(=O)c2ccco2)c1	-13.6%	?
O=S(=O)(/N=C(/c1ccccc1)N1CCCCC1)c1ccccc1	5.8%	-8.7%
CC(C)C1CC(CCN2CCCCC2)(c2ccccc2)CCO1 (stereo not given)	-3.3%	-26.7%
CCS(=O)(=O)N1CCC(C(=O)NCC2CCCO2)CC1 (stereo not given)	-3.3%	3.0%
Cc1onc(-c2ccccc2)c1C(=O)NCc1ccc2c(c1)OCO2	-4.5%	1.8%
CN(C)c1ccc(CNCC2CCCO2)cc1 (stereo not given)	2.2%	-3.4%
O=C1c2ccccc2-c2cccc(C(=O)N3CCCCCC3)c21	0.3%	-28.0%
CC1CCCCC1NC(=O)CSc1nnc(CC(=O)Nc2ccccc2F)n1C (stereo not given)	0.5%	13.6%
CN(C)c1ccc(NC(=O)c2cccc(N3C(=O)CCC3=O)c2)cc1	7.9%	-15.7%
CN(C)c1nc(Oc2ccc(OCCOc3ccccc3)nn2)nc(N(C)C)n1	13.2%	?
CC(=O)NC(=S)Nc1ccccc1C(=O)Nc1ccccc1	-4.7%	-20.2%
CCCCCn1c(C(Cc2ccccc2)NC(=O)COC)nc2ccccc21 (stereo not given)	11.4%	18.4µM*
COc1ccc(S(=O)(=O)Nc2ccccc2OC)cc1NC(=O)c1cc2ccccc2oc1=O	-11.3%	-10.6%
Cn1cc(SCC(=O)O)c2ccccc21	-5.1%	-0.1%
COc1cccc(N2C(=O)C(CC(=O)Nc3ccc(F)cc3)N(C3CCCCC3)C2=O)c1 (stereo not given)	-11.6%	-5.2%
CS(=O)(=O)c1ccc2nc(NC(=O)c3cccc([N+](=O)[O-])c3)sc2c1	3.3%	-14.1%
Cc1c(NC(=O)c2nn(CC(C)C)c(=O)c3ccccc23)c(=O)n(-c2ccccc2)n1C	1.2%	-2.5%
COc1ccccc1C(c1nnnn1C(C)(C)C)N1CCCc2ccccc21 (stereo not given)	-2.3%	?

(list continues)
SMILES	FEN1 inhibitor	DT40 TDP1 CPT
O=S(=O)(NCc1ccccn1)c1ccccn1	3.0%	4.9%
CC1=NN(c2ccccc2)C(=O)/C1=C\c1cn(C)c2ccccc12	-21.7%	?
Cc1ccc(-c2noc(COc3ccccc3C)n2)cc1	-3.8%	-14.6%
CCCOC(=O)c1ccc(Nc2nc(C)cc(=O)[nH]2)cc1	8.4%	?
Cc1ccc(C(C)NC(=O)c2ccco2)cc1 (stereo not given)	-4.9%	-9.4%
COc1ccc(C(C(=O)NC2CCCCC2)N(CC2CCCO2)C(=O)CCCC(=O)Nc2ccccn2)cc1 (stereo not given)	-10.2%	-16.1%
COC(=O)c1ccsc1NC(=O)c1ccco1	-9.5%	14.0%
CCC(=O)Nc1ccc2c(c1)nc1n2CCN(C2CCCCC2)C1	3.3%	?
O=C(NNC1CC(=O)N(c2ccccc2)C1=O)c1ccccc1Cl (stereo not given)	14.6%	13.3%
CCCCc1nc(N2CCOCC2)c(C#N)c2c1CCCC2	-12.8%	-3.2%
CC(=O)Nc1ccc(NC(=O)CS(=O)(=O)Cc2ccccc2)cc1	-1.3%	4.6%
CC1CCC(N2CCN(S(C)(=O)=O)CC2)CC1 (stereo not given)	-6.7%	-2.5%
CC1CCCCC1NC(=O)COC(=O)c1ccc2ccccc2n1 (stereo not given)	6.2%	-1.7%
CCN1CCN(c2nc(Nc3ccc(OC)cc3)nc(N)c2[N+](=O)[O-])CC1	-7.9%	?
CCC(=O)N1CCc2cc(Br)cc(S(=O)(=O)NCc3ccccc3OC)c21	11.6%	-9.0%
Nc1ccc(C(=O)NCCCCCCNC(=O)c2ccc(N)cc2)cc1	-7.4%	0.0%
C/C(N)=C(/C#N)C(=O)CSc1nc2cc(Cl)ccc2c(=O)n1Cc1ccco1	-6.1%	-22.0%
O=C(CCSc1nc(-c2ccco2)cc(C(F)(F)F)n1)N1CCN(c2ccccc2)CC1	-18.6%	?
COc1ccccc1N1CC(C(=O)Nc2cccc(C(=O)O)c2)CC1=O (stereo not given)	1.7%	10.3%
C[C@@H](C(=O)N1CCN(Cc2ccc3c(c2)OCO3)CC1)n1nnc2ccccc2c1=O	17.3%	?
O=C(CN1CCCCC1)Nc1cccc(-n2cnnn2)c1	-4.5%	-3.2%
CN1CCN(C(=O)CSc2nnc(COc3ccc(Cl)cc3)o2)CC1	-0.9%	1.3%
O=C1C(Cl)=C(NCCN2CCCCC2)C(=O)c2ccccc21	-11.6%	4.11µM*
O=C1CSC(c2ccccc2[N+](=O)[O-])N1c1ccccc1 (stereo not given)	-8.0%	4.4%
Cc1cccc(NS(=O)(=O)c2cn(C)c(=O)n(C)c2=O)c1C	22.4%	0.0%
COc1cc(NC(=O)c2ccc(Cl)cc2)c(OC)cc1NC(=O)CN1CCCCC1	-21.7%	?
CCOc1cc(/C=N/n2cnnc2)ccc1OS(=O)(=O)c1ccc(C)cc1	0.4%	-23.2%
Cc1ccccc1/C=N/NC(=O)Cn1cnc([N+](=O)[O-])n1	-2.3%	-10.5%
O=C(NCCc1ccccc1)c1cc(=O)[nH]c2ccccc12	-6.2%	4.6%
N#CCSc1ccc(-c2nc3ccccc3[nH]2)cn1	-4.1%	?
COC(=O)c1cc([N+](=O)[O-])ccc1N1CCN(Cc2ccccc2)CC1	-11.9%	?
CCn1cc(C(=O)N2CCc3ccccc32)c(=O)c2cc(S(=O)(=O)N3CC(C)CC(C)C3)ccc21 (stereo not given)	7.6%	14.6µM*
CNCCOc1ccccc1C(C)(C)C	-5.9%	-28.4%
O=C(CCc1nc(-c2ccccc2Cl)no1)NC1CCCC1	18.8%	0.4%
Cc1ccc(O)c(C(=O)c2cnc3c(c2)c(C)nn3C)c1	-1.0%	0.9%
Nc1ccc(/C=C/C(=O)c2cccs2)cc1	-11.7%	7.8%
CCCCNC(=O)CN(C1CCCCC1)S(C)(=O)=O	6.8%	4.4%
CCC(C)N1CCN(S(=O)(=O)Cc2ccccc2)CC1 (stereo not given)	0.7%	-15.9%
O=C(CNS(=O)(=O)c1cccs1)NCCc1ccc(Cl)cc1	-0.6%	2.4%
CC(C)Cc1nnc(NS(C)(=O)=O)s1	6.3%	-1.8%
CCOC(=O)c1ccc(N2C(=O)CC(N3CCC(Nc4ccc(F)cc4)CC3)C2=O)cc1 (stereo not given)	-18.5%	-18.2%
S=C(Nc1cccnc1)Nc1ccccn1	15.7%	?
CC(C)c1ccc(/C=N/n2nnnc2Nc2ccccc2)cc1	-1.6%	?
CN(CC(=O)Nc1ccccc1Cl)C(=O)COC(=O)Cc1ccc(F)cc1	-4.4%	-3.4%
Cc1cc(C)c(NC(=O)CNC(=O)COC(=O)C2=COCCO2)c(C)c1	12.3%	4.2%
CC(OC(=O)c1nn(C)c(=O)c2ccccc12)C(=O)NC1CCCCC1C (stereo not given)	0.3%	-6.0%
CC(C)c1ccc(OCC(=O)NC(C)c2ccccc2)cc1 (stereo not given)	-2.1%	-7.1%
Cc1nnc(SCc2cc(=O)oc3cc(O)ccc23)n1Cc1ccccc1	5.1%	-10.9%

Entries shown so far that contain bromine (2):
SMILES	FEN1 inhibitor	DT40 TDP1 CPT
COc1c(C)cc(Br)cc1C(=O)Nc1cccc(NC(=O)c2ccco2)c1	-13.6%	?
CCC(=O)N1CCc2cc(Br)cc(S(=O)(=O)NCc3ccccc3OC)c21	11.6%	-9.0%

A section from further up, for reference:
SMILES	FEN1 inhibitor	DT40 TDP1 CPT
CC(C)c1ccc(/C=N/n2nnnc2Nc2ccccc2)cc1	-1.6%	?
CN(CC(=O)Nc1ccccc1Cl)C(=O)COC(=O)Cc1ccc(F)cc1	-4.4%	-3.4%
Cc1cc(C)c(NC(=O)CNC(=O)COC(=O)C2=COCCO2)c(C)c1	12.3%	4.2%
CC(OC(=O)c1nn(C)c(=O)c2ccccc12)C(=O)NC1CCCCC1C (stereo not given)	0.3%	-6.0%
CC(C)c1ccc(OCC(=O)NC(C)c2ccccc2)cc1 (stereo not given)	-2.1%	-7.1%
Cc1nnc(SCc2cc(=O)oc3cc(O)ccc23)n1Cc1ccccc1	5.1%	-10.9%

More structures follow:
SMILES	FEN1 inhibitor	DT40 TDP1 CPT
NC(=O)c1ccccc1N/C=C/C(=O)c1ccco1	3.2%	-27.3%
O=C(N/N=C/c1ccc(OCC(=O)N2CCCCC2)cc1)c1ccccc1	0.3%	4.9%
COc1ccc(CC(=O)NCC2(c3ccc(OC)c(OC)c3)CCOCC2)cc1	5.9%	-2.1%
COc1cccc(C(=O)/C=C/c2ccc(OCC#N)c(OC)c2)c1	-10.8%	20.6µM*

Not all compounds are listed; most or all hits stand in other tables.
